GLA inh pH 4.5 = blocks human alpha-galactosidase A at pH 4.5; purified enzyme, 4-MU-alpha-Gal fluorescence, pH 4.5; activity change, negative = inhibition, % at 105 µM; P06280; 230,000 tested, under 10 active; AID 1467; inconclusive = small, poorly fitted or top-dose-only inhibition, or a rising curve; inactive = flat fitted curve, though single readings scatter; no compound was filed as active;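 note: 0% = full activity with enzyme and -100% = basal without enzyme; dose as in the result columns while the protocol names 77 µM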
miR-21 FLuc = miR-21 reporter, rising signal. HeLa miR-21 FLuc reporter, luciferase, 48 h. 340,000 tested, under 10 active. Potency, µM (series often up to 38.3 µM), for the others: top-dose reporter change, positive = more light. AID 2288; active = well fitted rising curve with a large enough effect; inconclusive = small, poorly fitted or top-dose-only effect; inactive = no such curve, though single readings can be large or run the other way;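 note: % of control where 0% means no effect; miR-21 action dims this reporter so a rising signal means less miR-21 action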
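Luminescence from a firefly luciferase reporter carrying a miR-21 binding site downstream, stably expressed under a CMV promoter in HeLa cells that make miR-21 endogenously, reports miRNA modulation after 48 h compound exposure up to approximately 40uM final.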
Rango-impB inh = inhibitors of Rango-importin beta complex formation. Rango CFP/YFP FRET sensor + importin beta, 45 min. hit rate 0.031% among 340,000. Potency, µM (series often up to 92.2 µM), for inactives: at the top dose inhibition of complex formation; active = rising FRET ratio curve, often small or poorly fitted; inconclusive = mostly compound fluorescence or quenching in the first reads; inactive = flat curves in all reads;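 note: potency is the fitted concentration of half-maximal effect; 0% = DMSO wells and 100% = buffer wells lacking importin beta; nearly all actives have a fitted effect of over 15% in size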
Target sequence (Q14974 whole entry, looked up): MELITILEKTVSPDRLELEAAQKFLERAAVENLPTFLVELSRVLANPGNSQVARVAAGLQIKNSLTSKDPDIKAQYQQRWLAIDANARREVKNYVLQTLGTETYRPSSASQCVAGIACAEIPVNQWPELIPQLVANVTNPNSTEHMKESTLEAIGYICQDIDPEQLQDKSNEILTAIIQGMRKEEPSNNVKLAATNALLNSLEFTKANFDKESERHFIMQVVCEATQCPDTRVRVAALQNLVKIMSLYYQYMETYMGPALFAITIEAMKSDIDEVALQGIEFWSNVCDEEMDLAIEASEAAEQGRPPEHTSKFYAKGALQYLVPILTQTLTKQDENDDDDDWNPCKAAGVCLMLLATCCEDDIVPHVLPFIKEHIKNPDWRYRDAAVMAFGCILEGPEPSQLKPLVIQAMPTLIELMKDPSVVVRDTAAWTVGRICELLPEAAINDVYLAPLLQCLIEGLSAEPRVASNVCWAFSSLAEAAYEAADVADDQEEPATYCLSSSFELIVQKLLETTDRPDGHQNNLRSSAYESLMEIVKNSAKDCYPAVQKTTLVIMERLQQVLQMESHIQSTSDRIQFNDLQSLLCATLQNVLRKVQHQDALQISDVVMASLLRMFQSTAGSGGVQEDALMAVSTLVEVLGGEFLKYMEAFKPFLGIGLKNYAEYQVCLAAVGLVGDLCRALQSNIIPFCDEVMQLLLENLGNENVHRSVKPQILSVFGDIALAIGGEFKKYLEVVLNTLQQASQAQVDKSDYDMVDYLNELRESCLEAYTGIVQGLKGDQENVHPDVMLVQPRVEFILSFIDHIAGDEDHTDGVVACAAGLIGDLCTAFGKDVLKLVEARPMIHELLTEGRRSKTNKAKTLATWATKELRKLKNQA
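FRET biosensor (snurportin 1 IBB flanked by EYFP and cerulean), 50 nM, with compound 5 min, then 0.125 microM importin beta in PBS, 1 mM DTT, 0.02% Tween-20, 0.1% BSA. CFP/YFP ratio read after 45 min at room temperature; pre-read flags interference.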
Rango release inh = inhibitors of RanGTP-induced Rango-importin beta complex dissociation; O95149+P62826; Biochemical FRET Rango-importin beta, RanGTP-induced dissociation; Potency, µM (top dose mostly 46.1 µM), for the others: top-dose activity change, negative = inhibition; hit rate 0.071% among 340,000; AID 540253; active means falling FRET ratio curve, often poorly fitted, with flat reads before Ran was added; inconclusive means other falling curves, or compound fluorescence or quenching; inactive means flat or rising ratio curve;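 note: potency is the fitted concentration of half-maximal effect; % of control where 0% means no effect; nearly all actives have a fitted effect of over 45% in size; -100% = wells without RanGTP and RCC1; the record marks most hits as doubtful in a second field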
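Two FRET readings bracket the reaction: one 5 min after compound meets Rango–importin beta, another 45 min after RanGTP-RCC1 (0.6 uM Ran, 0.2 uM RCC1, 2 mM GTP) is added. Only the second defines inhibition.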
* = called active by the depositor; u = inconclusive; x = not tested or not shown; & = joins results of further samples. Some of the compounds tested (hit frequency here may not be typical).

SMILES	GLA inh pH 4.5	miR-21 FLuc	Rango-impB inh	Rango release inh
COc1cccc2sc3cc(NCCCN4CCOCC4)ccc3c(=O)c12	x	x	u	u
O=C1Nc2ccccc2OC1CC(=O)N1CCCC1 (stereo not given)	-6	-3%	-2.0%	0%
COc1ccc(CN2CC(C(N)=O)Oc3ccccc32)cc1F (stereo not given)	x	-6%	0.2%	-13%
Cc1cc(C)c(NC(=O)CNC(=O)COC(=O)/C=C/c2cccs2)c(C)c1	x	x	0.8%	-14%
Cc1c(C)n(CCO)c2ncnc(Nc3ccc(F)cc3)c12	x	-75%	4.6%	21%
O=C(NCc1ccccc1)C(c1cccnc1)N(C(=O)c1ccccn1)c1ccc(F)cc1 (stereo not given)	x	2%	0.8%	11%
CC(Sc1nnc(C2CCCCC2)n1N)C(=O)NCc1ccc2c(c1)OCO2 (stereo not given)	3	1%	5.5%	2%
O=C(O)c1ccc(NNC(=S)Nc2cc(C(F)(F)F)ccc2Cl)cc1	x	-49%	-5.7%	-10%
CCN(Cc1ccccc1)C(=O)CSc1ccccc1C(=O)O	1	6%	-2.7%	-1%
Cc1ccc(NC(=S)N(Cc2cccc(Br)c2)CC2CCC(C(=O)O)CC2)cc1 (stereo not given)	-9	-19%	0.7%	-10%
O=C(c1cnccn1)N1CCc2ccccc2C1	6	2%	-1.1%	-3%
COCC(=O)N(CCc1ccc(OC)c(OC)c1)Cc1cc2cc(C)ccc2nc1Cl	-9	12%	0.2%	1%
Nc1cc(C(=O)OCC(=O)NCc2ccc(F)cc2)ccc1Cl	4	-3%	-0.9%	9%
NS(=O)(=O)c1ccc(CCNC(=O)CNC(=O)c2ccccc2Br)cc1	x	0%	2.5%	4%
Fc1ccc(NC(=S)Nc2ccc(Cl)cc2)cc1	-1	20%	-0.2%	23%

An excerpt from the list above, for reference:
SMILES	GLA inh pH 4.5	miR-21 FLuc	Rango-impB inh	Rango release inh
NS(=O)(=O)c1ccc(CCNC(=O)CNC(=O)c2ccccc2Br)cc1	x	0%	2.5%	4%
Fc1ccc(NC(=S)Nc2ccc(Cl)cc2)cc1	-1	20%	-0.2%	23%

Later entries.
SMILES	GLA inh pH 4.5	miR-21 FLuc	Rango-impB inh	Rango release inh
COc1cc(NS(=O)(=O)c2cccc3nsnc23)c(C(=O)O)cc1OC	2	0%	1.3%	1%
COc1ccc(C(=O)CN2C(=O)NC3(CCc4ccccc43)C2=O)c(OC)c1 (stereo not given)	x	x	-0.4%	8%
Cn1cccc1C1C(C#N)=C(N)OC2=C1C(=O)CC(C)(C)C2 (stereo not given)	-9	4%	1.2%	-4%
Cc1ccc(/C=N/NC(=O)CNC(=O)c2cccc([N+](=O)[O-])c2C)o1	-6	0%	-1.0%	-8%
O=C(CCOc1ccccc1)Nc1nnc(-c2ccc3c(c2)OCCO3)o1	3	-15%	-1.4%	-15%
Cc1cc(C)n(C(=O)c2ccncc2)n1	0	-1%	x	x
CCN(CC)S(=O)(=O)c1cccc(NC(=O)c2ccc(Br)cc2)c1	-17	14%	3.3%	12%
CC(=O)N(Cc1ccco1)C1(C(=O)NC2CCCCC2)CCCCC1	-4	-3%	2.5%	9%
Cc1c(NC(=O)c2cc(-c3cccs3)on2)c(=O)n(-c2ccccc2)n1C	1	-8%	3.5%	14%
CO/N=C(/CS(=O)(=O)c1ccc(Br)cc1)c1ccc(OC)cc1	-6	18%	0.1%	-2%
CCc1cccc2c1NC(=O)C21N2CCCC2C(C(=O)c2ccc3ccccc3c2)C12C(=O)Nc1ccccc12 (stereo not given)	0	-4%	-0.4%	-17%
C#CCOCCOCCOCCNc1nc(N2CCN(C(=O)C([C@@H](C)O)n3cc([C@@H](N)CCCCN)nn3)CC2)nc(N2CCN(C(=O)[C@H](CC(N)=O)n3cc(C(N)[C@@H](C)CC)nn3)CC2)n1 (stereo not given in full)	x	x	-2.2%	24%
CCC1=C(OC(=O)N(CC)CC)N2C(=O)OC(=NCc3ccccc3)[C@]2(C)[C@H]2C1=CC[C@H]1C(=O)NC(=O)[C@H]12	3&-4	0%	-2.6%	-11%
O=C(Nc1ccc(NC(=O)c2ccc([N+](=O)[O-])cc2[N+](=O)[O-])cc1)c1ccco1	x	-10%	2.3%	-2%
O=C(O)C(CC1CCCCC1)N1CCS(=O)(=O)CC1 (stereo not given)	2	0%	11%	15%

Sorted by molar mass (smallest number first): some entries from above
SMILES	GLA inh pH 4.5	miR-21 FLuc	Rango-impB inh	Rango release inh
Cn1cccc1C1C(C#N)=C(N)OC2=C1C(=O)CC(C)(C)C2 (stereo not given)	-9	4%	1.2%	-4%
Cc1ccc(/C=N/NC(=O)CNC(=O)c2cccc([N+](=O)[O-])c2C)o1	-6	0%	-1.0%	-8%
COc1cc(NS(=O)(=O)c2cccc3nsnc23)c(C(=O)O)cc1OC	2	0%	1.3%	1%
O=C(Nc1ccc(NC(=O)c2ccc([N+](=O)[O-])cc2[N+](=O)[O-])cc1)c1ccco1	x	-10%	2.3%	-2%
CCC1=C(OC(=O)N(CC)CC)N2C(=O)OC(=NCc3ccccc3)[C@]2(C)[C@H]2C1=CC[C@H]1C(=O)NC(=O)[C@H]12	3&-4	0%	-2.6%	-11%

Continued:
SMILES	GLA inh pH 4.5	miR-21 FLuc	Rango-impB inh	Rango release inh
N#Cc1c(NCCCO)nc(NCc2ccccc2)c2c1CCN(Cc1ccccc1)C2	-10	7%	u	u
CCN(CC)CCn1c(=N)n(CCOc2ccccc2)c2ccccc21	8	-3%	-0.2%	-1%
CCCC1=NN(C(=O)Cc2ccc(OC)c(OC)c2)C(O)(C(F)(F)F)C1 (stereo not given)	10	-5%	-1.6%	12%
N/C(=N\OC(=O)c1ccccc1Cl)c1ccccn1	12	16%	-1.0%	1%
N#Cc1cccc(S(=O)(=O)NNC(=O)C23CC4CC(CC(C4)C2)C3)c1	x	x	u	4%
COc1ccc(C2=CC(c3ccc(C)cc3)n3nnnc3N2)cc1 (stereo not given)	3	-3%	u	u
c1ccc2nc3c(nc2c1)sc1nc2ccccc2n13	0	-2%	x	x
COC(=O)Nc1nc2ccc(SC(C)C)cc2[nH]1	4	x	3.0%	11%
O=C1CC(C(=O)Nc2ccc(F)cc2)n2cnnc2N1 (stereo not given)	2	1%	-0.3%	0%
CCOC(=O)c1cn(CC(=O)Nc2ccc(C(C)C)cc2)nn1	13	0%	4.9%	0%
Cc1ccc(-c2cc(C(=O)NCCCn3ccnc3)c3ccccc3n2)s1	u	-4%	-2.2%	10%
O=C(c1ccccc1)C1CCc2occc2C1=O (stereo not given)	-8	-15%	-0.1%	-6%
S=C(c1ccc(N2CCCC2)cc1)N1CCCCC1	2	-22%	1.7%	u
Cc1cc(C)c(C)c(S(=O)(=O)N(C)CCc2ccccn2)c1C	x	x	4.1%	-5%
Cc1cccc(NC(=O)C2C(C(=O)O)C3C=CC2C32CC2)c1C (stereo not given)	2	2%	-0.4%	-2%
O=C(CSc1ccc(Cl)cc1)NC1CCCc2ccccc21 (stereo not given)	-5	0%	-1.3%	21%
O=C(Nc1ccc(C(=O)N2CCCCC2)cc1)c1ccc(Br)cc1	-10	-5%	-0.2%	1%
COc1ccc(CNC(=O)c2sc(=S)n(-c3ccccc3)c2N)cc1	-2	-3%	-0.7%	10%
CNC(=S)N/N=C/c1ccc(-c2ccc(C(=O)O)cc2)o1	9	-45%	u	-26%
C[C@@H]1C=C[C@](Cc2ccccc2)(C(=O)NCCc2c[nH]c3ccccc23)N1C(=O)c1ccccc1	-1&-8	14%	2.0%	11%
CC12CCC(C(=O)O)(c3nc4cc([N+](=O)[O-])ccc4nc31)C2(C)C (stereo not given)	-2	0%	-2.5%	-1%
CC1CCCCN1S(=O)(=O)c1ccc2c(c1)C(C)(C)C(=O)N2C (stereo not given)	x	-2%	3.3%	2%
CCN(CC)c1ccc(/C=N/Nc2nc(C)cc(=O)[nH]2)cc1	-4	4%	u	-12%
COc1ccc(C(=O)Nc2cc(OC)c(Cl)cc2Cl)cc1	0	-1%	-0.6%	0%
CCc1ccc(OCC(=O)NNC(=O)c2cnccn2)c(Br)c1	x	-1%	6.5%	-4%
CC(=O)Nc1ccc(-n2c(C)ccc2C)cc1	-10	-1%	u	0%
NC(=O)/C(=C\c1ccncc1)c1cccc2ccccc12	5	-1%	-5.7%	-20%
COc1cc(CCC(=O)OCC(=O)NCCc2ccc(S(N)(=O)=O)cc2)cc(OC)c1OC	x	x	-0.3%	-8%
O=C(CC1C(=O)NCCN1Cc1c(F)cccc1Cl)NCCC1=CCCCC1 (stereo not given)	2	-2%	1.4%	6%
Cc1cc(OCC(=O)OCC(=O)N(C)c2c(N)n(Cc3ccccc3)c(=O)[nH]c2=O)ccc1Cl	x	x	-0.8%	0%
CC(=O)N1c2ccc(S(=O)(=O)N3CCOCC3)cc2CC1C (stereo not given)	x	-3%	-1.2%	-1%
Cc1ccc(C)c(S(=O)(=O)N2CCCC2CNC(=O)c2ccc([N+](=O)[O-])cc2)c1 (stereo not given)	x	x	5.5%	12%
Cc1cc(C)c2c(c1)/C(=N/NC(=S)Nc1ccc(F)cc1)CCC2	-1	-1%	-0.4%	u
COc1ccc(C2(C(=O)Nc3ccc(C)c(C)c3)CCOCC2)cc1	-6	5%	0.3%	23%
O=c1cc(CO)oc(CN2CCN(c3cccc(C(F)(F)F)c3)CC2)c1O	3	5%	1.2%	-5%
COc1ccc(Cl)cc1C(=O)NCC#N	1	0%	-0.8%	-15%
CC1(C)CC(=O)C2=C(C1)N(c1ccc(F)cc1)C(=O)C2(NC(=O)c1ccccc1)C(F)(F)F (stereo not given)	-11	-3%	x	x
O=C1[C@@H]2Cc3c([nH]c4ccccc34)C(c3ccccc3)N2C(=O)CN1C1CC1 (stereo not given in full)	x	0%	-1.8%	-27%
O=C1CN(C(=O)COC(=O)c2ccccc2NC(=O)c2ccco2)c2ccccc2N1	-9	0%	0.2%	31%
CCCCc1ccc(NS(=O)(=O)N(C)C)cc1	1	-17%	4.9%	1%
CC(C)CC(=O)N1CCC(N(CCc2ccccc2)Cc2ccccc2)CC1	x	16%	-1.9%	4%
COc1ccccc1N(O)C1CC(=O)N(c2ccc(Br)cc2)C1=O (stereo not given)	-1	-12%	-1.2%	-14%
COc1ccc(OCCNS(=O)(=O)c2ccccc2)cc1	0	-12%	-3.6%	20%
O=C(NC1=NCCS1)c1ccccc1	x	-22%	-0.2%	1%
COc1cccc(N2CCN(C(=O)Nc3ccc4c(c3)NC(=O)CO4)CC2)c1	0	2%	5.0%	-1%
COC(=O)C1CCN(C(=O)c2cc(S(=O)(=O)N3CCCCC3)ccc2Cl)CC1	x	x	-0.4%	2%
C[C@H](NC(=O)OCc1ccccc1)c1nnc([C@H](Cc2ccccc2)NC(=O)OC(C)(C)C)o1	-5	15%	2.3%	u
CCOc1ccc2nc(NC(=O)c3c([N+](=O)[O-])cnn3CC)sc2c1	2	-16%	-2.1%	-3%
Cc1cc(=O)oc2c3c(cc(OCC(=O)N[C@H](C(=O)O)c4ccccc4)c12)OC(C)(C)CC3	x	-1%	-0.6%	0%
Cc1ccc(C)c(NC(=O)NNS(=O)(=O)c2ccc(C)c(C)c2)c1	x	-3%	-0.6%	2%
COC(=O)NCc1ccc2c(c1)OCO2	-1	-5%	-0.4%	10%
CCc1ccccc1NNC(=O)c1snnc1C	-13	-9%	0.3%	0%
COc1ccc(OC)c(C2/C(=C(/O)c3ccccc3)C(=O)C(=O)N2Cc2ccco2)c1 (stereo not given)	5	0%	-0.9%	22%
NC(=O)C1CCN(C(=O)CN2CCCc3ccccc32)CC1	3	-9%	u	-27%
Cc1cccc(N/C(N)=N/c2nc(C)c(Cc3ccccc3)c(=O)[nH]2)c1	4	4%	0.1%	5%
Cc1ccc(C)n1-n1c(C)nc2scc(-c3ccccc3)c2c1=O	7	-1%	-0.9%	21%
Cc1nnc2n(C)c(=O)c3c4c(sc3n12)COC(C)(C)C4	x	x	4.7%	9%
CCOC(=O)N1CCC(N2CCCC(C(=O)c3cccc(OC)c3)C2)CC1 (stereo not given)	-2	-2%	-2.0%	-5%
O=C(c1cc(C(=O)N2CCOCC2)c2nc3ccccc3n2c1)c1cc(Cl)cc(Cl)c1O	2	-4%	3.6%	-4%
Cc1ccccc1C(=O)O	x	x	0.6%	1%

Screens (PubChem BioAssay)
